# High-throughput results deposited in PubChem by Fisher Drug Discovery Resource Center.
# NPYLR7 agonist: mosquito NPYLR7 agonism. HEK293T NPYLR7/Galpha15, GCaMP6s calcium fluorescence. activation, % at 10 µM. 270,000 compounds, 0.15% hits; in the data active means activation above about 40%;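 further: 0% = vehicle and 100% = reference agonist at the receptor; some compounds past the cut are filed as inactive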
# NPYLR7 agonist max-min: second read-out of NPYLR7 agonist, no call of its own (marks repeat the call); activation, %; measured here: Max-Min RFU normalised activation; some inactives read as strong as hits;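 span of the calcium signal over five minutes; 0% = vehicle and 100% = native peptide agonist; compound fluorescence can raise it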
# The depositor's hits bear a star; & = joins results of further samples. The list is partial. The share of hits here may be higher or lower than overall.
# Sample of the layout, 28 compounds:
SMILES,NPYLR7 agonist,NPYLR7 agonist max-min
Nc1nc(N)nc(-c2ccc(-c3nc(N)nc(N)n3)cc2)n1,-9,-10
Cn1cc(-c2ccc3c(c2)N(Cc2ccccc2Cl)C(=O)COC3)cn1,6,1
O=C(Nc1cccc(S(=O)(=O)N2CCCC2)c1)c1cnc2n(c1=O)CCS2,-4,-5
CCOc1ccccc1N=CC(C#N)c1nc2ccccc2n1C (stereo unspecified),-2,-8
C#CC1(OCC(O)CN2CC(C)CC(C)C2)CCCCC1 (stereo unspecified),0,25
CC(=O)NCC1CCC2(CCN(Cc3cc4n(n3)CCCNC4)CC2)O1 (stereo unspecified),-12,-15
Cc1cc(C)n(-c2ccc(Nc3ccc(NC(=O)c4ccc5c(c4)OCO5)cc3)nn2)n1,-4,-9
CC(C)N1CCN(CCn2ccnc2-c2nccn2C)CC1,22,8
CN(CC1CCCC1)C(=O)c1ccccc1Oc1cccnc1,0,-1
CC(CCc1ccco1)Nc1nc(-c2cccnc2)nc2c1cnn2C (stereo unspecified),1,1
CN1C(=O)C(CC(=O)NCc2ccon2)(Cc2ccccc2)c2ccccc21 (stereo unspecified),1,-11
CN(C)C(N)=NCCC[C@H](N)C(=O)O,-2,-28
S=C1NC2(CCCC2)NN1c1ccccc1,8,8
COc1ccc(N2C(=O)/C(=C/c3ccc(Cl)cc3)C=C2c2ccccc2)cc1,0,1
COc1cc(C=C2C(=O)N(C)C(=O)N(C)C2=O)cc(OC)c1OC,-6,-11
CC(C)NC(=O)N1CCN(c2ccc(C(C)C)cc2)C(=O)C1C (stereo unspecified),2,3
O=S(=O)(Oc1ccc(-c2nc3ccccc3o2)cc1CN1CCOCC1)c1cccc(C(F)(F)F)c1,10,7
COc1ccc(C(=O)NC(C(=O)NC(C)C)C2CCN(C(=O)c3ccco3)CC2)cc1 (stereo unspecified),7,7
CCc1cccc2c(C(CC(=O)N3CCN(Cc4ccccc4)CC3)c3cccc(OC)c3)c[nH]c12 (stereo unspecified),17,23
CN(Cc1n[nH]c2c1CCCCC2)C(=O)c1cc(COc2ccc(F)c(F)c2)on1,-2,-5
C=CCn1c(=NC(=O)CC)sc2cccc(OCC)c21,3,1
O=P1(Nc2ccc(SC(F)F)cc2)C=C(c2ccccc2)SC(c2ccccc2)=C1,1,12
CCOC(=O)C1(Cc2cccc(F)c2)CCN(Cc2ccn[nH]2)CC1,1,-1
COC(=O)CNC1CC(=O)N(c2ccc(F)cc2)C1=O (stereo unspecified),0,-3
CCCCCOC(=O)C1=C(C)NC2=C(C(=O)CCC2)C1c1ccccc1OCC (stereo unspecified),1,-5
Cc1onc(C(=O)NC2CCCCC2)c1[N+](=O)[O-],2,2
Cc1ccc(C2(O)CCN(C(=O)c3oc4cc(C)ccc4c3C)CC2)nc1,-2,-5
Cc1nc(C2(NC(=O)CCc3cccs3)CCCCC2)no1,-4,1

# The listing, previewed entries included:
SMILES,NPYLR7 agonist,NPYLR7 agonist max-min
Nc1nc(N)nc(-c2ccc(-c3nc(N)nc(N)n3)cc2)n1,-9,-10
Cn1cc(-c2ccc3c(c2)N(Cc2ccccc2Cl)C(=O)COC3)cn1,6,1
O=C(Nc1cccc(S(=O)(=O)N2CCCC2)c1)c1cnc2n(c1=O)CCS2,-4,-5
CCOc1ccccc1N=CC(C#N)c1nc2ccccc2n1C (stereo unspecified),-2,-8
C#CC1(OCC(O)CN2CC(C)CC(C)C2)CCCCC1 (stereo unspecified),0,25
CC(=O)NCC1CCC2(CCN(Cc3cc4n(n3)CCCNC4)CC2)O1 (stereo unspecified),-12,-15
Cc1cc(C)n(-c2ccc(Nc3ccc(NC(=O)c4ccc5c(c4)OCO5)cc3)nn2)n1,-4,-9
CC(C)N1CCN(CCn2ccnc2-c2nccn2C)CC1,22,8
CN(CC1CCCC1)C(=O)c1ccccc1Oc1cccnc1,0,-1
CC(CCc1ccco1)Nc1nc(-c2cccnc2)nc2c1cnn2C (stereo unspecified),1,1
CN1C(=O)C(CC(=O)NCc2ccon2)(Cc2ccccc2)c2ccccc21 (stereo unspecified),1,-11
CN(C)C(N)=NCCC[C@H](N)C(=O)O,-2,-28
S=C1NC2(CCCC2)NN1c1ccccc1,8,8
COc1ccc(N2C(=O)/C(=C/c3ccc(Cl)cc3)C=C2c2ccccc2)cc1,0,1
COc1cc(C=C2C(=O)N(C)C(=O)N(C)C2=O)cc(OC)c1OC,-6,-11
CC(C)NC(=O)N1CCN(c2ccc(C(C)C)cc2)C(=O)C1C (stereo unspecified),2,3
O=S(=O)(Oc1ccc(-c2nc3ccccc3o2)cc1CN1CCOCC1)c1cccc(C(F)(F)F)c1,10,7
COc1ccc(C(=O)NC(C(=O)NC(C)C)C2CCN(C(=O)c3ccco3)CC2)cc1 (stereo unspecified),7,7
CCc1cccc2c(C(CC(=O)N3CCN(Cc4ccccc4)CC3)c3cccc(OC)c3)c[nH]c12 (stereo unspecified),17,23
CN(Cc1n[nH]c2c1CCCCC2)C(=O)c1cc(COc2ccc(F)c(F)c2)on1,-2,-5
C=CCn1c(=NC(=O)CC)sc2cccc(OCC)c21,3,1
O=P1(Nc2ccc(SC(F)F)cc2)C=C(c2ccccc2)SC(c2ccccc2)=C1,1,12
CCOC(=O)C1(Cc2cccc(F)c2)CCN(Cc2ccn[nH]2)CC1,1,-1
COC(=O)CNC1CC(=O)N(c2ccc(F)cc2)C1=O (stereo unspecified),0,-3
CCCCCOC(=O)C1=C(C)NC2=C(C(=O)CCC2)C1c1ccccc1OCC (stereo unspecified),1,-5

# The list goes on:
SMILES,NPYLR7 agonist,NPYLR7 agonist max-min
Cc1onc(C(=O)NC2CCCCC2)c1[N+](=O)[O-],2,2
Cc1ccc(C2(O)CCN(C(=O)c3oc4cc(C)ccc4c3C)CC2)nc1,-2,-5
Cc1nc(C2(NC(=O)CCc3cccs3)CCCCC2)no1,-4,1
CN1CC(=O)N2CCN(S(=O)(=O)c3ccc(Cl)s3)CC2C1=O (stereo unspecified),2,-1
CC(Cc1ccccn1)NC(=O)c1cc(-c2ccncc2)nc2ccccc12 (stereo unspecified),11,2
O=C(c1ccncc1)N1CCC(C(=O)N2C[C@@H]3[C@H](C2)[C@H]2CC[C@@H]3O2)CC1,7,3
Cc1cnc(C(=O)OCC(=O)C(C#N)c2nc(C)cs2)cn1 (stereo unspecified),1,6
COc1cccc(C(=O)N[C@H]2C[C@@H](C(=O)NCc3cc(F)ccc3C)N(C)C2)c1,-2,1
N#CC(=C(O)C(F)(F)F)c1nc2ccccc2c(=O)[nH]1,11,9
O=C1OC(/C=C/c2ccc(Cl)cc2)=NC/1=C/c1ccc2c(c1)OCO2,-17,-19
Cc1ccsc1-c1cccc(NC(=O)c2ccc(=O)n(C)c2)c1,9,4
Cc1cnc(CNC(=O)C2(N(C)Cc3ccccc3)Cc3ccccc3C2)cn1,6,1
O=C(NCC1CC1)Nc1ccc(S(=O)(=O)CC2CCOC2)cc1 (stereo unspecified),-5,-7
CCCN(CCc1c[nH]c2ccc(NC(=O)CCSC)cc12)CC1CC1,1,6
CN(C)CCN(Cc1ccccc1)C(=O)c1cccnc1Oc1cccc([N+](=O)[O-])c1,-21,-24
COc1ccc(OCC2c3ccsc3CCN2C(=O)CN(CC(C)O)C2CC2)cc1 (stereo unspecified),-3,16
COc1cc(OC)cc(C(=O)N2CCC(C(=O)NC3CCCC[C@H]3NC(=O)c3ccccc3)CC2)c1 (stereo partly specified),-1,3
O=C(CCc1ccccn1)N1CCc2c([nH]c3ccccc23)C1c1ccccc1F (stereo unspecified),5,2
CCC(CC)NC(=O)c1nc2nc(C)cc(C)n2n1,4,3
CCOc1ccccc1C(=O)Nc1c2c(nn1CC(=O)NCc1ccco1)CSC2,-3,4
COC(=O)C1=C(C)NC(SC)=NC1c1c(OC)ccc2ccccc12 (stereo unspecified),3,1
COCc1ccccc1CNc1nnc(C)c(C)c1C#N,3,1
O=c1oc2ccc3ccccc3c2cc1-c1csc(NCc2ccc(F)cc2)n1,2,10
Cc1ccc(NC(=O)CN(C)C(=O)Cn2nc(C)c([N+](=O)[O-])c2C)cc1,-3,-9
Cc1cc(-n2c(C)cc(C(=O)COC(=O)C=Cc3ccc(Br)o3)c2C)no1,-7,-13

# Reprinted at random: 2 records from the list, in no set order.
SMILES,NPYLR7 agonist,NPYLR7 agonist max-min
COC(=O)C1=C(C)NC(SC)=NC1c1c(OC)ccc2ccccc12 (stereo unspecified),3,1
COc1cc(OC)cc(C(=O)N2CCC(C(=O)NC3CCCC[C@H]3NC(=O)c3ccccc3)CC2)c1 (stereo partly specified),-1,3

# Continuation:
SMILES,NPYLR7 agonist,NPYLR7 agonist max-min
COc1cccc(N2C(=O)CSC2c2cccc(NC(=O)c3cccc(Br)c3)c2)c1 (stereo unspecified),14,18
CN(C)CCCN(CC1CCN(C2Cc3ccccc3C2)CC1)C(=O)c1cccnc1,8,3
CC(=O)N1N=C(Cc2ccccc2)OC1C(=O)NCC(=O)OC(C)(C)C (stereo unspecified),11,3
COc1ccc(-n2nc([N+](=O)[O-])c(=NCCC3=CCCCC3)n2O)cc1,0,-2
CCN1CCc2c(sc(-n3cccc3)c2C#N)C1,-3,-4
c1nc(Nc2ccc3c(c2)OCCCO3)c2c3c(sc2n1)CCCC3,-1,-2
COc1cccc(-c2cnnc(NCc3cnn(-c4ccccc4OC)c3)n2)c1,-3,-3
Cc1nn(-c2ccccc2)c(C)c1C(CN)C(F)(F)F (stereo unspecified),-7&2,-8&-1
Cc1cc(CNC(=O)c2cc(C(C)C)n(C)n2)ccc1S(C)(=O)=O,4,4
Cc1ccc(NC(=O)CN2C(=O)c3ccccc3C2=O)c(C)c1,-8,-18
O=C(OCc1nc2ccccc2c(=O)[nH]1)c1ccc2c(c1)OCCCO2,4,3
CCOC(=O)CC(=O)CSc1ncnc2c1nnn2Cc1ccc(F)cc1,13,13
Cc1nn(C2CCS(=O)(=O)C2)c2nc(-c3cccs3)cc(C(=O)O)c12 (stereo unspecified),-3,-5
CCC(C)N(C)CCNS(=O)(=O)c1cccc(S(C)(=O)=O)c1 (stereo unspecified),-5,-6
CN(C)CCCN(C(=O)c1ccc(Br)cc1)c1nc2ccc(F)cc2s1,7,6
O=C(COc1ccc2c3c(c(=O)oc2c1)CCC3)NCCc1cccs1,14,6
Cc1c(Cc2ccc(Cl)cc2)c(=O)n2c([nH]c3ccccc32)c1C#N,1,5
CC1CN(C(=O)c2cc(-c3ccc(Br)cc3)n[nH]2)CCO1 (stereo unspecified),2&6,1&2
CCCn1ncc(C(=O)N2CCC3(CCCN(CCOC)C3=O)C2)c1C (stereo unspecified),1,-2
CC(C)C(NC(=O)CCl)c1ccc2c(c1)OCCO2 (stereo unspecified),-4,-9
CCOC(=O)C1CCN(c2c(Cc3ccccc3)c(C)nc3ncnn23)CC1,18,6
CC(C)c1ccc(NC(=O)CSc2nnc(CCn3ccc(=O)[nH]c3=O)o2)cc1,-1,-2
CC(C)(C)c1ccc(COc2coc(CN3CCCN(S(=O)(=O)c4c(F)cc(F)cc4F)CC3)cc2=O)cc1,15,11
CCSc1nnc2c(n1)OC=Nc1ccccc1-2,0,-3
CC(C#N)Sc1nc2cc(Cl)ccc2c(=O)n1Cc1ccco1 (stereo unspecified),-1,0

# The list goes on.
SMILES,NPYLR7 agonist,NPYLR7 agonist max-min
CC(C)(C)c1cc2nc(C(=O)N3CCN(Cc4ccc5c(c4)OCO5)CC3)cc(-c3ccccc3F)n2n1,8&21,12&16
CC(C)(C)c1ccc(-n2c(=O)[nH]c3c(C(N)=O)nc(-c4cccc(Br)c4)nc32)cc1,-11,-12
CCN1CCN(C(=O)CCCn2nnnc2CN2CCc3ccccc3C2)[C@@H](C)C1=O,0,-5
COc1ccnc(NCCC2CC3CCC2C3)n1 (stereo unspecified),-1,-2
O=c1c(-c2cccs2)[n+]([O-])c2ccccc2n1OCc1ccccn1,-1,0
CCOc1ccccc1C(=O)N1CCc2cc(OC)c(OC)cc2C1c1ccc(F)cc1 (stereo unspecified),3,1
O=C(NCc1cccs1)c1cc2c(s1)CCCCC2,0,33
O=C(c1cn2ccsc2n1)N1CC[C@@H](c2ccc(F)cc2)[C@H](O)C1,9,8
O=C(C1CC1)N(Cc1cccc(OCc2nc(CO)cs2)c1)Cc1ccco1,6,5
CC(=O)c1ccccc1-c1ccccc1C(=O)NC(C)C,0,-3
Cc1nc(NCCNC(=O)c2cccc3ccccc23)cc(-n2ccnc2C)n1,-16,-22
Cc1cc(CSc2ccc(S(=O)(=O)N(C)C)cn2)no1,11,10
O=C1CCCN1C1CCCN(CCOc2ccc(F)cc2)C1 (stereo unspecified),5,2
